PINK1 expr mod: PINK1 expression modulation; AID 624263; PINK1 immunofluorescence, high-content cytometry, 24 h; 410,000 tested, 0.2% active; Potency, µM (doses to about 76.6 µM), for inactives: at the highest dose activation (PINK1 increase), most hits filed as activators; active = well fitted activation curve with a large enough effect; inconclusive = small, poorly fitted or top-dose-only effect; inactive = flat fitted curve, though single readings scatter; cell line not stated here;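 note: % of control where 0% means no effect; nearly all actives have a fitted effect of over 65% in size; a mitochondrial uncoupler was the plate control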
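PINK1 protein, normally rapidly degraded, was detected by immunofluorescence after 24 hour compound treatment of a stable cell line. Titration data (5 concentrations) came from laser-scanning cytometry, with CCCP-treated wells as controls.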
ClpP mod: qHTS Assay for Activators of ClpP. ATP-dependent Clp protease proteolytic subunit (Bacillus subtilis (strain 168)), P80244. purified B. subtilis ClpP, FRET peptide cleavage, 20 min. Potency, µM (top dose mostly 57.5 µM), without a hit: at the top dose activity change, negative = active. 340,000 tested, 1.9% active. AID 651965, 2013; active = well fitted falling curve with a large enough effect; inconclusive = small, poorly fitted or top-dose-only effect; inactive = no such curve, though single readings can be large or run the other way; note: the source files actives as falling curves though it sought activators and does not explain the sign; nearly all actives have a fitted effect of over 65% in size; many hits overshoot -100%
Target sequence (P80244 whole entry, looked up): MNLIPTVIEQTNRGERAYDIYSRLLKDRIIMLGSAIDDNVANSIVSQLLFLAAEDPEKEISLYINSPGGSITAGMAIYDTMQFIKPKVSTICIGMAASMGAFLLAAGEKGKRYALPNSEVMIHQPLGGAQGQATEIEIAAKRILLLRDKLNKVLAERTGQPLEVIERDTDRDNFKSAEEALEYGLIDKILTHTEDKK
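FRET quenching reversal measured ClpP activation: 10 microg/mL B. subtilis ClpP at pH 8 with the FRET-FV decapeptide, read at 430 nm after 320 nm excitation. The 20-min minus 0-min signal was scaled between DMSO/no-enzyme wells and ADEP (5.8 microM final).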
* marks the source's active call; other numbers are inactive results; ? = inconclusive. Potency is the fitted concentration of half-maximal effect. These rows are one share of the data, so the mix of outcomes need not match the whole.

Structure | PINK1 expr mod | ClpP mod
Cc1ccc(NC(=O)C(Cc2ccccc2)n2cccc2)c(C)c1 (stereo not given) | 1.2% | -1.3%
CCOc1ccc2c(c1)c(=O)c(C(=O)c1ccc(CC)cc1)cn2CC(=O)Nc1ccccc1OC | 0.1% | -1.3%
COc1cccc(NC(=O)CSc2nnc(NC(=O)NC3CCCCC3)s2)c1 | -0.3% | -1.2%
COc1ccc(Cl)cc1NC(=O)NCCc1c(C)nn(C)c1C | 1.4% | 0.1%
Cc1ccccc1CNC(=O)c1ccc(Cn2c(SCc3cccc(F)c3)nc3cccnc32)cc1 | 1.3% | 4.6%
COc1ccc(NC(=O)C2CCN(C3=NS(=O)(=O)C(c4ccc(C)c(C)c4)=C3C)CC2)c(OC)c1 | 4.7% | -1.2%
COc1ccccc1CSc1nc2n(n1)C(c1ccccc1)C(C(=O)Nc1ccc(C)cc1)=C(C)N2 (stereo not given) | -1.9% | -6.0%
COc1ccc(CCNC(=O)Cn2nc(C)c3c(C)n(-c4ccc(C)cc4)nc3c2=O)c(OC)c1 | 2.4% | -8.4%
CCOc1ccc(NC(=O)/C(C#N)=C\c2ccc(-c3ccc(Cl)cc3)o2)cc1 | 1.9% | -4.0%
Cc1ccc(C)c(N2CCN(C(=O)CCc3c(C)nn(-c4ccc(N5CCCC5)nn4)c3C)CC2)c1 | 0.7% | -5.5%
CS(=O)(=O)N1CCCc2cc(C(=O)Nc3cccc(C(F)(F)F)c3)ccc21 | -0.4% | -4.8%
Cc1cccc(NC(=O)Nc2cccs2)c1C | -0.5% | 0.3%
Cc1ccc(CNC(=O)c2ccc3c(c2)CCN3S(=O)(=O)c2ccccc2)cc1 | -0.7% | 0.2%
Cc1ccc(-c2nc3ncccc3o2)cc1NC(=O)COc1ccc(C(C)C)cc1 | 10.3% | 4.2%
Cc1cccc(NC(=O)C(=O)NCC(c2ccc3c(c2)OCO3)N2CCN(C)CC2)c1C (stereo not given) | 2.1% | -0.8%
CCOc1ccc(-c2c(C)nn3c(-c4ccccc4)c(C(=O)NCCOC)cnc23)cc1OCC | 2.3% | -0.5%
CCCc1nn2c(=O)cc(COC(=O)c3ccccc3NC(=O)c3cccs3)nc2s1 | 1.3% | -0.7%
Cc1oc2ccc(O)c(CN3CCC(C)CC3)c2c1C(=O)Nc1ccccc1 | -0.9% | -2.1%
Cc1ccc(NC(=O)c2cc(S(=O)(=O)N3CCC(C)CC3)cn2C)cc1Cl | 0.2% | 7.1%
COc1ccc(-c2c(C)c3ccc(O)c(CN4CCCCC4C)c3oc2=O)cc1OC (stereo not given) | 0.5% | 4.2%
CC(C)Oc1ccc(CNC(=O)c2ccc3nc(SCc4ccc(F)cc4)n(C)c3c2)cc1 | 0.9% | -3.6%
COc1ccc(Cn2cc(CN3CC(N4CCN(Cc5ccccc5F)CC4)CS3(=O)=O)nn2)cc1 (stereo not given) | -0.6% | 1.6%
CC(=O)Nc1ccc(NC(=O)CN2C(=O)CN(C)C(=O)c3ccccc32)cc1 | 0.2% | -0.9%
CCOC(=O)c1c(C)oc2ccc(N(C(=O)Oc3ccccc3)S(=O)(=O)c3ccc(CC)cc3)cc12 | 4.7% | -5.2%
O=C(CSc1cn(CC(=O)N2CCCCC2)c2ccccc12)NCc1ccc(F)cc1 | 0.1% | -3.4%
CC1=Nc2cc(C(=O)NCCc3ccc(Cl)cc3)ccc2Sc2c(C)ccc(C)c21 | 0.0% | 1.3%
Cc1cc(C)c(NC(=O)CN2C(=O)C3(SCC(=O)N3c3ccc(F)cc3)c3ccccc32)c(C)c1 (stereo not given) | -2.8% | 1.2%
Cc1ccc(CNC(=O)c2nn(C)c3c2CSc2ccc(C)cc2-3)cc1 | 2.2% | -0.6%
Brc1nc2ncnc(NCc3ccco3)c2[nH]1 | 2.7% | 1.1%
CCOC(=O)c1c(Nc2ccc(OCC)cc2)nnc(-c2ccccc2)c1-c1ccccc1 | 0.0% | -1.9%
Cc1ccc(-c2cc(C(=O)Nc3c(C(=O)c4ccccc4)oc4ccccc34)no2)cc1F | -0.5% | -26.8%
COc1ccc(S(=O)(=O)N(CCc2ccccc2)CC(=O)Nc2ccc(C)c(C)c2)cc1OC | -0.8% | -2.5%
CCS(=O)(=O)c1ncc(N(Cc2cccc(F)c2)Cc2ccco2)c(C(=O)Nc2ccccc2Cl)n1 | -0.3% | -7.8%
Cc1cc(C)cc(NS(=O)(=O)c2ccc(-n3cccn3)cc2)c1 | 6.0% | -0.8%
C#CCOc1ccc(-c2nnc(Nc3cccc(C)c3)c3ccccc23)cc1 | -0.8% | -23.4%
Nc1c(-c2nc(-c3ccc(Cl)cc3)no2)nnn1-c1ccc(C(F)(F)F)c(Cl)c1 | -0.4% | -0.9%
Cn1c(SCC(=O)Nc2nc3ccccc3s2)ncc(C(=O)Nc2ccc(F)cc2)c1=O | ? | ?
CCCN(C(=O)NCc1noc2ccc(C)cc12)c1ccc(Cl)c(Cl)c1 | -1.5% | 0.1%
COc1ccc(NC(=O)c2ccco2)cc1NC(=O)c1ccc(C)c(C)c1 | -1.1% | 0.1%
Cc1nc2sc(C(N)=O)c(N)c2c(-c2ccc(Br)cc2)c1C(=O)Nc1ccc(Cl)cc1 | 1.8% | -4.6%
CCOC(=O)c1c(Nc2ccc(O)cc2)nnc(-c2ccccc2)c1-c1ccccc1 | -0.4% | 2.4%
COc1cccc(CNC(=O)[C@@H]2CCCN2C(=O)[C@H]2CCCCN2C(=O)c2ccc(Cl)cc2)c1 | -0.8% | 0.0%
Nc1c(C(=O)Nc2ccccc2)sc2nc3c(cc12)CN(Cc1ccccc1)CC3 | 22.2% | -14.1%
COc1ccc(-c2cc(C(=O)Oc3ccccc3)c3cc(C)ccc3n2)cc1 | -1.4% | -2.4%
COc1ccc(-n2ncc(C(=O)N3CCN(C4CCCCC4)CC3)c2C2CCN(C(=O)OC(C)(C)C)CC2)cc1 | 0.0% | 0.7%
COc1ccc(NC(=O)Cn2c(=O)n(-c3ccc(OC)cc3)c(=O)c3ccc(C(=O)NCc4ccc(C)cc4)cc32)cc1 | 5.8% | -1.9%
Cc1sc2ncn(CC(=O)N(C)c3ccc(C(C)C)cc3)c(=O)c2c1S(=O)(=O)N1CCC(C)CC1 | 5.2% | 0.4%
Cc1cc(Nc2cccc(Cl)c2)nc2ccc(NC(=O)Cc3cccc(C(F)(F)F)c3)cc12 | ? | 4.0%
CCCSc1nc2c(c(=O)[nH]1)C(c1ccc(F)cc1F)CC(=O)N2 (stereo not given) | 0.1% | -6.3%
Cc1c(NC(=O)c2sc3ccccc3c2Cl)cccc1-c1nc2ccccc2o1 | 3.9% | 0.6%
Cc1ccc(Cl)cc1N1CCN(C(=O)C2CCCN(S(=O)(=O)c3ccc(Br)s3)C2)CC1 (stereo not given) | -0.8% | -1.1%
Cc1csc2nc(CCNS(=O)(=O)c3ccccc3)cn12 | -0.3% | 0.5%
COc1ccc(NC(=O)N(Cc2nnc3n2CCCCC3)c2ccc(OC)c(Cl)c2)cc1 | ? | -0.8%
Cn1c(=O)c2c(nc(NCc3ccccc3)n2Cc2ccccc2Cl)n(C)c1=O | 2.5% | -3.0%
CCOc1ccccc1NC(=O)c1cnn2c(C(F)F)cc(-c3ccccc3)nc12 | 6.8% | 5.1%
Cc1csc(NCC(=O)c2c[nH]c3ccccc23)n1 | -0.6% | ?
CC(C)C[C@@H]1CC2=C(C(=O)OC(C)(C)O2)[C@H](CCc2ccccc2)O1 | ? | 0.9%
CC1CCN(c2ccc(-c3cccc(NS(=O)(=O)c4cccs4)c3)nn2)CC1 | -0.6% | -2.4%
CCc1c(C)sc2c1CCN(Cc1ccccc1)C2c1ccccc1 (stereo not given) | ? | -15.6%
CCOc1ccc(NC(=O)Cn2c(=O)c(CNc3ccccc3)cc3cc4c(cc32)OCCO4)cc1 | -0.5% | 2.9%

Next results follow:
Structure | PINK1 expr mod | ClpP mod
COC(=O)c1cc2oc(C)cc2n1Cc1c(C)cc(C)cc1C | 0.0% | 0.0%
CCc1cc2c(cc3c(=O)n(CC(=O)NCc4cccc(Cl)c4)nc(CC)n32)s1 | 0.0% | -0.1%
CC(C)c1ccc(Nc2c(-c3ccc(N(C)C)cc3)nc3cnccn23)cc1 | -0.3% | -5.0%
CC(=O)c1c(C)oc2ccc(N(C(=O)Oc3ccccc3)S(=O)(=O)c3ccc(Cl)cc3)cc12 | 2.9% | -1.1%
COc1ccc(-c2cc3c(=O)n(CC(=O)Nc4cc(C)ccc4C)ccn3n2)cc1 | 2.0% | -12.0%
COc1cccc(CNC(=O)C2CCCN(S(=O)(=O)c3ccc4c(ccn4C)c3)C2)c1OC (stereo not given) | 1.2% | -5.2%
CCc1ccc(N2C(=O)CSC23C(=O)N(Cc2ccc(C)cc2)c2ccccc23)cc1 (stereo not given) | 0.0% | -3.0%
COc1ccc(C(=O)NCc2ccc3c(c2)CCN3C(C)=O)c(OC)c1 | -0.1% | -0.2%
Cc1cccc(NC(=O)CCNS(=O)(=O)c2ccc3c(c2)CCCC(=O)N3)c1C | -1.1% | 1.9%
COc1ccc(NC(=O)CSc2cn(CCNC(=O)c3ccc(OC)cc3)c3ccccc23)cc1 | 2.5% | -0.5%
CCOC(=O)c1c(C)[nH]c(C)c1S(=O)(=O)N1CCC(C(=O)NCc2ccc(OC)cc2)CC1 | -0.4% | -0.3%
CCOC(=O)c1ccccc1NC(=O)N(Cc1ccco1)C1CCN(C(C)=O)CC1 | 2.8% | -15.1%
Cc1ccc(CN2C(=O)C(=O)c3cc(Br)cc(C)c32)cc1 | -1.1% | -1.5%
Cc1ccc(S(=O)(=O)N2CCC(=O)N([C@H](COCc3cccc(Cl)c3)Cc3ccccc3)CC2)cc1 | -0.9% | -4.1%
CCCc1cnc2c(c1SCC(=O)Nc1c(C)cc(C)cc1C)c(=O)n(C)c(=O)n2C | 1.3% | -0.8%
CCn1cc2nc(SCC(=O)Nc3ccc(C)cc3C)n(Cc3ccc(C)cc3)c(=O)c2n1 | -0.3% | 0.3%
COC(=O)c1ccc(NC(=O)CCc2c(C)nc3c(c2C)c(=O)n(C)c(=O)n3C)cc1 | 4.0% | -6.7%
CCc1ccc(NC(=O)c2ccc3c(c2)N(Cc2ccc(C)cc2)CCS3)cc1 | 9.0% | 4.3%
Cc1nnc(NC(=O)CSCc2cc(=O)c3cc(Cl)ccc3[nH]2)s1 | 0.9% | -7.6%
Clc1ccc2nc(-c3cccs3)c(Nc3ccc4c(c3)OCCO4)n2c1 | -2.3% | -10.0%
Cc1cc(-c2ccc(S(=O)(=O)Nc3ccccc3F)s2)on1 | -1.1% | -1.2%
COc1ccc(NC(=O)c2cc3cc(C)ccc3[nH]2)cc1 | 0.0% | 3.5%
COc1ccc(OC)c(CCNC(=O)CCn2c(=O)c3cccn3c3ccc(F)cc32)c1 | 0.7% | -1.9%
CCCN1CCc2nc(N3CCN(C)CC3)ncc2C1 | -0.8% | -3.8%
CCOc1ccc(NC(=O)c2c(NC(=O)c3ccccc3F)sc3c2CCC3)cc1 | 1.3% | -2.0%
CC1CCN(S(=O)(=O)c2cc(C(=O)NCc3ccc(F)cc3)n(C)c2)CC1 | -0.5% | -0.6%
COc1ccc(C(C(=O)NCc2ccccc2)N(C(=O)Cn2nnc3ccccc32)c2cccc(OC)c2)cc1 (stereo not given) | 1.4% | 0.8%
COC(=O)C1=C(c2ccccc2)c2ccccc2S(=O)(=O)N1CC(=O)Nc1cc(C)ccc1C | 1.4% | 0.1%
N#Cc1ccc(CSc2nc3c(c(=O)[nH]2)CCCC3)cc1 | 0.5% | 1.2%
Cc1ccc(Nc2ncc(C(=O)N3CCN(c4ccc(F)cc4)CC3)c3ccccc23)cc1Cl | 0.5% | 3.5%
Cc1cc(C)cc(NC(=O)Cn2cc(S(=O)(=O)NC(C)(C)C)c(S(=O)(=O)NC(C)(C)C)c2)c1 | ? | 2.7%
Cc1cc(=O)[nH]c2nnc(SCC(N)=O)n12 | 9.7% | -19.3%
Cc1cc(C)c(Cn2c3ccccc3c3cnn(CC(=O)NCc4ccc(Cl)cc4)c(=O)c32)c(C)c1 | 7.4% | -17.8%
CC(C)CC(=O)N(Cc1ccccc1)S(=O)(=O)c1ccc2c(c1)oc(=O)n2C | 0.3% | 0.4%
CC(C)C[C@@H]1Cc2[nH][nH]c(=O)c2[C@H](CCc2ccccc2)O1 | 1.9% | -2.9%
CCc1ccc(NC(=O)C2CCCN(S(=O)(=O)c3ccc4c(c3)oc(=O)n4C)C2)cc1 (stereo not given) | 8.9% | 1.4%

Three entries from above, sorted by SMILES length, high to low.
Structure | PINK1 expr mod | ClpP mod
Cc1cc(C)cc(NC(=O)Cn2cc(S(=O)(=O)NC(C)(C)C)c(S(=O)(=O)NC(C)(C)C)c2)c1 | ? | 2.7%
CCc1ccc(NC(=O)C2CCCN(S(=O)(=O)c3ccc4c(c3)oc(=O)n4C)C2)cc1 (stereo not given) | 8.9% | 1.4%
CC(C)C[C@@H]1Cc2[nH][nH]c(=O)c2[C@H](CCc2ccccc2)O1 | 1.9% | -2.9%

From PubChem
